Source: PubChem BioAssay (Johns Hopkins Ion Channel Center)
KCNQ2 pot – potentiators of rat KCNQ2 potassium channel; O88943; hit rate 0.54% among 310,000; B-score at 10 µM; CHO-K1 KCNQ2, FluxOR thallium flux fluorescence; active compounds read high;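 active = fluorescence ratio B-score at least 3 SD of library B-scores, with initial fluorescence B-score within 3 SD, cut at about 5.3 in these data; same plate scores as AID 2156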;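 also: B-score of peak minus minimum over baseline fluorescence ratio after K+ and Tl+ stimulus; positive B-score means potentiation of KCNQ2 with more thallium influx and brighter signal; only the inactives scoring about 0 or higher are listed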
Target sequence (O88943 whole entry, looked up): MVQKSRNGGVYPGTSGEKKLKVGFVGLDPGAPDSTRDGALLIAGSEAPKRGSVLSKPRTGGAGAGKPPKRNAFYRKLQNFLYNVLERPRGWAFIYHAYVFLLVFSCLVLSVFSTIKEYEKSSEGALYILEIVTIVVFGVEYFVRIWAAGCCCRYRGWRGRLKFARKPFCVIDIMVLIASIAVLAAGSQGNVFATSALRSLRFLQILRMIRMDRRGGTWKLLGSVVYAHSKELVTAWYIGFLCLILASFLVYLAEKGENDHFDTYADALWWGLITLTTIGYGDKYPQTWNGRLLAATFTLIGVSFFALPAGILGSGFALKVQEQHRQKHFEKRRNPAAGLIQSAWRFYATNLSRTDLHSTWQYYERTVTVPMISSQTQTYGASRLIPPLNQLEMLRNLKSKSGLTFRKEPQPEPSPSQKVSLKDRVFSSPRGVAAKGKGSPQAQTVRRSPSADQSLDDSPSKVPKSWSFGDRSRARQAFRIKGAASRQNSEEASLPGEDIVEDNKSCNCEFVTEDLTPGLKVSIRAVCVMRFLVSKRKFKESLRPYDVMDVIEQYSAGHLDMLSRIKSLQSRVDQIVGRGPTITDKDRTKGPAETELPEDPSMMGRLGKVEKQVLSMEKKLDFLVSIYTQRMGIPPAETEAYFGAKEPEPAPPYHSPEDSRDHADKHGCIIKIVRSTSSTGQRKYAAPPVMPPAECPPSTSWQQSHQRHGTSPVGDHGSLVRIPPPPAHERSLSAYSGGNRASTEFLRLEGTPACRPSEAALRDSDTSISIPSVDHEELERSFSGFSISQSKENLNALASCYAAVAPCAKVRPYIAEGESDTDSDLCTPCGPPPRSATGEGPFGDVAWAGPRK
KCNQ2 pot baseline – further read-out of KCNQ2 pot, marked with its call; B-score; compound at 10 µM; measured here: initial fluorescence intensity artifact check;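 brightness before thallium and not channel activity; 0 = typical well and far values either way flag optical interference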
Numbers without * were called inactive; & = joins results of further samples. The list is partial; count on the stated rates, not on these rows.

SMILES	KCNQ2 pot	KCNQ2 pot baseline
Cc1ccc(S(=O)(=O)c2c(C)nn(-c3ccccc3)c2OC(=O)c2ccco2)cc1	1.31	0.14
Cc1ccc(OCC(=O)N/N=C/c2ccco2)cc1	0.9	-1.28
O=C(CSc1ccccn1)C12CC3CC(CC(C3)C1)C2	0.02	-0.48
CC(C)Cc1nc(SCC(=O)N2CCCCC2)c2c(=O)n(C)c(=O)n(C)c2n1	26.8*	-1.61*
COc1ccc(CN(C)C(=O)CCN2C(=O)c3ccccc3C2=O)c(OC)c1OC	0.84	0.52
C/C(=N\NC(=S)NC1CCCCC1)c1cccc(C(F)(F)F)c1	3.62	1.05
Cc1ccc(NC(=O)c2ccc(-n3cccn3)c([N+](=O)[O-])c2)cc1	1	0.88
Cc1c(OC(C(=O)O)c2ccccc2)ccc2c1oc(=O)c1ccccc12 (stereo not given)	0.02	-0.89
CC(C)Oc1cccc(NC(=O)c2cnccc2C(F)(F)F)c1	0.34	0.07
CCN1CCN(C2CCCCC2NS(=O)(=O)c2ccc(Cl)cc2)CC1 (stereo not given)	1.02	1.51
Cc1cccc(NC(=O)CCCC(=O)OC(C)C(=O)c2ccccc2)c1 (stereo not given)	0.66	-1.26
NC(CCC(=O)O)C12CC3CC(CC(C3)C1)C2 (stereo not given)	0.2	0.05
COc1ccccc1N(CC(O)Cn1ccnc1C)S(=O)(=O)c1ccccc1 (stereo not given)	3.01	-1.36
CC(C)(C)c1ccc(C(=O)NCC(=O)OCC(=O)N2CCN(S(=O)(=O)c3ccc(Cl)cc3)CC2)cc1	1.56	-1.52
Cc1ccc(CCNS(=O)(=O)c2ccc3c(c2)NC(=O)CCS3)cc1	0.68	1.22
CNNC(=O)C(C)NC(=O)c1ccc(Br)cc1 (stereo not given)	0.15	0.74
COc1cccc(N(C(=O)c2sc(C)nc2C)C(C(=O)NCC2CCCO2)c2ccccc2)c1 (stereo not given)	1.09	0.04
C=CCN1C(=O)c2ccccc2Sc2ccc(C(=O)N3CCN(C)CC3)cc21	0.06	0.77
O=C(Nc1ccc(N2CCOCC2)cc1)c1cccc(S(=O)(=O)N2CCCC2)c1	0.59	0.03
CN(C)c1ccc(N2CC(C)(C)C2=O)cc1	0.64	0.9
CCc1nc2ccc(C(=O)Nc3ccc(NC(C)=O)cc3)cc2nc1CC	0.01	1.62
O=S(=O)(c1ccc(S(=O)(=O)N2CCC(O)CC2)cc1)N1CCCC1	0.67	-0.64
COc1ccc(CNC(=O)Cn2nc([N+](=O)[O-])c(Br)c2C)cc1OC	1.77	-1.06
COc1ccc(-c2nnn(CC(=O)N(CCO)C(C(=O)NC3CCCC3)c3ccncc3)n2)cc1 (stereo not given)	0.95	-1.08
O=C(Nc1ccccc1)Oc1cccc(Br)c1	0.2	0.77
Cc1cc(NC(=O)C2CCCC2)nc2c1c(=O)oc1ccccc12	2.5	-0.4
CC(C)(C)c1ccc(-c2noc(CCC(N)=O)n2)cc1	0.11	-0.04
CCn1cc(C2C3=C(CC(C)(C)CC3=O)N(c3ccccc3)C3=C2C(=O)CC(C)(C)C3)c(C)n1	1.05	-1.24
Cc1ccc(S(=O)(=O)N2CCCC2C(=O)Nc2ccc(O)cc2)cc1 (stereo not given)	1.89	-0.37
COc1ccc(NC(=O)n2nc(OC(=O)c3cccs3)cc2N)cc1	0.07	0.03
O=C(Cn1nnc(-c2ccccc2)n1)N/N=C/c1cc([N+](=O)[O-])ccc1O	0.72	-3.33
CC(Sc1nnnn1-c1ccc(O)cc1)c1nc2ccccc2c(=O)[nH]1 (stereo not given)	1.8	-0.29
COc1cccc(C(=O)Nc2cccc(C(=O)N3CCOCC3)c2)c1	0.72	0.22
Cc1cc(C)cc(N2CC(C)Cn3c2nc2c3c(=O)[nH]c(=O)n2C)c1 (stereo not given)	1.75	-1.35
COC(=O)c1cc(-c2ccc(Br)cc2)c2c(=O)[nH]c(=O)n(C)c2n1	0.71	1.78
CN1/C(=C\C(=O)c2cccnc2Cl)C(C)(C)c2ccccc21	2.88	0.66
CSc1ccc(S(=O)(=O)N2CCC(C(=O)NCC3CCCO3)CC2)cc1 (stereo not given)	2.17	-0.77
C=CCn1c[n+](CC(=O)c2ccc(Br)s2)c2ccccc21	1.15	0.31
CCc1ccc(CNC(=O)c2ccc(NC(=O)C3=CSCCO3)cc2)cc1	1.7	1.03
O=C(CSc1nnc(-c2ccc(O)cc2)o1)Nc1ccccc1	0.33	0.46
CCOC(=O)C1CCN(c2ccc([N+](=O)[O-])cc2S(=O)(=O)N2CCOCC2)CC1	0.82	0.44
COc1cc(/C=N/NC(=O)c2c(C)nc3ccc(Cl)cn23)cc(OC)c1OC	0.53	-0.65
Nc1nc2nccc(-c3cccnc3)n2n1	0.52	0.15
O=C(Cc1ccc2c(c1)CCCC2)Nc1ccc2ccccc2c1	1.47	0.25
Cc1c(NC(=O)c2ccccc2)c(=O)n(-c2ccccc2)n1C	1.56	-1.07

Profiles, quoted from the list:
Shown for COc1cc(/C=N/NC(=O)c2c(C)nc3ccc(Cl)cn23)cc(OC)c1OC = KCNQ2 pot: 0.53; KCNQ2 pot baseline: -0.65
Shown for C=CCn1c[n+](CC(=O)c2ccc(Br)s2)c2ccccc21 = KCNQ2 pot: 1.15; KCNQ2 pot baseline: 0.31
Shown for O=C(Cn1nnc(-c2ccccc2)n1)N/N=C/c1cc([N+](=O)[O-])ccc1O = KCNQ2 pot: 0.72; KCNQ2 pot baseline: -3.33

The list goes on:
SMILES	KCNQ2 pot	KCNQ2 pot baseline
O=C(NCc1ccco1)c1ccc(CS(=O)(=O)Cc2ccc(Cl)cc2)o1	0.32	1.43
O=C(C1=C(O)C(=O)N(CCc2ccccc2)C1c1ccncc1)c1cc2ccccc2o1 (stereo not given)	0.08	-2.26
O=S(=O)(NCc1ccc(C(F)(F)F)cc1)c1ccc(-n2cnnn2)cc1	1	-0.85
Cc1cc([N+](=O)[O-])nn1Cc1ccc(F)cc1	0.68	0.98
CN(C)C(=O)N1CCC(C(=O)NCc2cccs2)CC1	1.43	-0.24
O=C(NCc1ccccc1F)C1CCN(S(=O)(=O)c2ccccc2)CC1	0.75	-0.57
COc1cc(OC)cc(C(=O)N2CCN(c3ccccn3)CC2)c1	0.6	-1.98
COc1ccccc1C(=O)NCC1CCN(c2ccc(S(=O)(=O)N3CCOCC3)cc2)CC1	0.55	0.3
COc1ccc2[nH]c3c(=S)nc[nH]c3c2c1	0.5	-1.49
CCOC(=O)C1CCCN(CCC(C)c2ccccc2)C1 (stereo not given)	0.01	-0.22
CC(N)C12CC3CC(CC(C3)C1)C2 (stereo not given)	2.05&1.4	0.33&-1.07
CCc1nc2sc(C(=O)O)c(N)c2c2c1CCCC2	0.64	-1.38
Cc1ccc(S(=O)(=O)N/N=C/c2cn(C)nc2C)cc1	0.61	0.19
CCn1c(C)nc2cc(C(=O)NNC(=S)Nc3ccc(Cl)cc3Cl)ccc21	0.02	0.68
O=C(c1c(F)cccc1F)N(Cc1ccccn1)C1CCCC1	0.63	1.28

Exported comma-delimited: part of the list above
Compound,KCNQ2 pot,KCNQ2 pot baseline
CCn1c(C)nc2cc(C(=O)NNC(=S)Nc3ccc(Cl)cc3Cl)ccc21,0.02,0.68
Cc1cc([N+](=O)[O-])nn1Cc1ccc(F)cc1,0.68,0.98

Following part
SMILES	KCNQ2 pot	KCNQ2 pot baseline
CN(C)S(=O)(=O)c1ccc(NC(=O)COC(=O)Cn2[nH]c(=O)c3ccccc3c2=O)cc1	0.38	0.66
CCCCCC(=O)Nc1ccc(Cl)cn1	1.34	-0.65
CCOC(=O)NC1CCS(=O)(=O)C1 (stereo not given)	0.84	1.86
COc1ccc(C(C(=O)NCC2CCCO2)N(Cc2ccco2)C(=O)c2snc(C(N)=O)c2N)cc1OC (stereo not given)	1.18	0.31
CC(=O)OC1COC(n2ccc3ccccc32)C(OC(C)=O)C1OC(C)=O (stereo not given)	1.73	1.44
CCOC(=O)C1CCCN(C(=O)CN2C(=O)C(CC)Oc3ccc(C)cc32)C1 (stereo not given)	1.68	-0.15
Cc1ccc(CSc2nnc(-c3cccnc3)n2N)cc1	0.46	0.2
CCn1c(SCC(=O)Nc2cc(C)on2)nc2c(c1=O)SC(C)C2 (stereo not given)	0.4	-2.9
Cc1nnc(Oc2ccccc2F)c2ccccc12	0.43	-1.98
O=C(Nc1ccc2c(c1)OCCO2)c1cccc(S(=O)(=O)N2CCCCC2)c1	0.06	-0.13
COc1cc(N/N=C/c2ccccc2O)ncn1	1.33	-1.29
CN1CCN(C(=O)CCN2C(=O)/C(=C/c3ccc(F)cc3)SC2=S)CC1	1.16	0.85
Cc1ccc(NC(NC(=O)c2cccs2)C(Cl)(Cl)Cl)cc1C (stereo not given)	0.55	-0.82
CCCC(=O)Nc1ccc(C)c(O)c1	1.12	1.31
CC(=O)Nc1cccc(Nc2nc(-c3ccccc3F)nc3ccccc23)c1	1.15	-0.51
O=C(Nc1ccc(Cl)cc1)c1ccco1	0.67	0.02
O=C(c1cnn2c(C(F)(F)F)cc(-c3ccc(Br)cc3)nc12)N1CCOCC1	0.18	1.22
O=c1cc(Cl)[nH]c(=O)n1CCNc1ncc(C(F)(F)F)cc1Cl	4.16	0.22
CC(C)c1ccc(NC(=O)CSc2n[nH]c(=O)n2C2CC2)cc1	1.66	-0.56
CC(=O)NO	0.19	-1.87
CCC(=O)c1ccc(N2CCN(C(=O)c3ccccc3Br)CC2)c(F)c1	2.75	0
O=C(C1CCN(S(=O)(=O)c2cccc3cccnc23)CC1)N1CCn2c1nc1ccccc12	0.07	-0.72
CN(Cc1nc2c(s1)CCCC2)C(=O)CCc1nnc(-c2ccccc2)o1	0.84	-0.93
COc1cc(C(=O)O/N=C2\CCCc3c2ccc(OC)c3[N+](=O)[O-])cc(OC)c1OC	0.45	-1.64
CCCCn1c(N)c(N(CCOC)C(=O)c2ccc3c(c2)C(=O)N(c2ccccc2C)C3=O)c(=O)[nH]c1=O	0.24	-1.23
CN(CCCNC(=O)CCC(=O)N1CCOc2ccc(Cl)cc21)Cc1ccccc1	3.85	0.44
COc1ccc(-n2c(-c3ccc(Cl)cc3)c[nH]c2=S)cc1	0.28	-2.93
Cc1c(Cc2ccccc2)c(=O)oc2cc(OC(C)C(=O)NCC3CCC(C(=O)O)CC3)c(Cl)cc12 (stereo not given)	0.49	0.01
CCOC(=O)CN1C(=O)CSc2ccccc21	0.08	0.02
COc1ccc(-n2nc([N+](=O)[O-])c(=NCCc3ccc(OC)c(OC)c3)n2O)cc1	0.68	-1.21

Looked up one by one from the list above, 4 records:
SMILES	KCNQ2 pot	KCNQ2 pot baseline
O=C(Nc1ccc(Cl)cc1)c1ccco1	0.67	0.02
CN(CCCNC(=O)CCC(=O)N1CCOc2ccc(Cl)cc21)Cc1ccccc1	3.85	0.44
COc1cc(C(=O)O/N=C2\CCCc3c2ccc(OC)c3[N+](=O)[O-])cc(OC)c1OC	0.45	-1.64
COc1ccc(-n2nc([N+](=O)[O-])c(=NCCc3ccc(OC)c(OC)c3)n2O)cc1	0.68	-1.21

(continued)
SMILES	KCNQ2 pot	KCNQ2 pot baseline
Cc1cc(OC(C)C(=O)NC(Cc2c[nH]c3ccc(O)cc23)C(=O)O)c2c(C)cc(=O)oc2c1 (stereo not given)	1.88	0.99
COc1ccc(N2CCN(C(=O)CNC(=O)c3ccc(C(C)(C)C)cc3)CC2)cc1	0.65	0.34
COc1ccc(OC)c(/C=C/c2[nH]c(=O)[nH]c(=O)c2[N+](=O)[O-])c1	0.37	0.01
Nc1nnc(SCC(=O)N2CCN(Cc3ccccc3)CC2)s1	0.99	-0.06
O=C(c1cccs1)N1CCN(c2ccc([N+](=O)[O-])cc2F)CC1	1.23	-1.82
CCN(CC)C(=O)Cn1cc(C(=O)C(=O)NCCCN2CCCCC2)c2ccccc21	0.68	-0.46
CCCc1cc(=O)oc2c(C)c(OS(C)(=O)=O)ccc12	0.1	0.94
O=C(COc1ccc(S(=O)(=O)N2CCCCC2)cc1Cl)N1CCCC1	1.55	0.02
COCCNC(=O)c1snc2ccc(Cl)cc12	0.01	0.1
Cc1ccc2nc(SCC(=O)Nc3cc(C(F)(F)F)ccc3N3CCOCC3)[nH]c2c1	0.02	-0.8
CCCc1cc(=O)oc2c(C)c(OC(C)C(=O)NCc3ccccn3)ccc12 (stereo not given)	1.78	0.27
CCCCn1c(N)c(N(CC(C)C)C(=O)c2cc(-c3ccco3)nc3ccccc23)c(=O)[nH]c1=O	0.79	-0.03
Cc1cc(C(=O)OCC(=O)c2ccccc2)c2ccccc2n1	2.27	0.46
COc1ccc2cc(CN(CC3CCCO3)C(=O)Nc3ccccc3OC)c(=O)[nH]c2c1 (stereo not given)	0.63	-0.35
CC(=O)c1cccc(NS(=O)(=O)c2ccc(NC(=O)N3CCCCC3)cc2)c1	0.02	-2.13
COc1ccc(-c2noc(CCC(=O)NCC3CCN(Cc4cccc(C)c4)CC3)n2)cc1	2.52	0.57
O=CNc1ccc(OC(=O)c2cncc(Br)c2)cc1	1.28	-0.61
COc1ccc(CNS(=O)(=O)c2ccc3c(c2)C(C)(C)C(=O)N3C)cc1	2.24	-2.26
Cc1ccc(-c2c(C#N)c(N)nc3c2CCCCC3)cc1	0.19	-2.67
CCOC(=O)N1CCN(C(=O)C(C)N(c2ccccc2)S(C)(=O)=O)CC1 (stereo not given)	0.11	2.04
Cc1nc(CN(C)Cc2nc(Cc3cccc(F)c3)no2)cs1	0.29	-1.67
O=C1/C(=C/c2ccccn2)SC(=S)N1c1ccc(O)cc1	1.07	-0.37
O=C(CCNC(=O)Cn1ccc2ccccc2c1=O)NCCCN1CCOCC1	0.67	0.12
COc1cccc(NC(=S)N2CCN(C/C=C/c3ccccc3)CC2)c1	0.87	0.37
O=C(CCN1C(=O)C2C3C=CC(C3)C2C1=O)NCCN1CCCc2ccccc21 (stereo not given)	0.26	-0.06
C/C(=N\NC(=O)c1ccc(Cl)cc1)c1ccc(N2CCOCC2)cc1	1.02	-0.01
